Compound activity from PubChem BioAssay.
MT1-MMP act inh – blockers of MT1-MMP proenzyme processing, primary screen, HT1080 RFP-PRO-GFP cells, GFP/RFP fluorescence; AID 651647, 2012; Matrix metalloproteinase-14 (Homo sapiens), P50281; actives 0.061% (n = 360,000); GFP/RFP ratio fluorescence, overnight; percent of plate control window, DMSO zero; GFP/RFP ratio change, % at 20 µM;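 active = GFP/RFP ratio change of at least 30% with cell ATP level not reduced by more than half and red fluorescence within 50% of control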; note: strong numbers were not always called active
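Compound: 20 µM single dose, 1% DMSO / System: HT1080 RFP-PRO-GFP cells / Controls: DMSO and RFP-L50D-GFP cell wells / Read-out basis: GFP/RFP fluorescence ratio / Schedule: overnight compound exposure at 37 °C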
CSC inhib – cancer stem cell viability inhibitors, primary screen, luminescence; actives 1.1% (n = 300,000); cancer stem cell-like cells viability; inhibition, % at 7.5 µM; AID 2717, 2010;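 active = mean at 75% or more and at least half the replicates too; inconclusive = mean and replicates disagree; tested in HMLE shEcad cells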;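 note: 0% = median of negative and 100% = median of positive control wells; the first replicate is given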
Env fusion inh – inhibitors of HIV-1 Env-driven cell-cell fusion, primary screen, HeLa-JRFL effector, CEM21 target cells, luciferase; actives 1.1% (n = 360,000); inhibition, % at 12.3 µM;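 active = mean replicate inhibition score of at least 50 and every replicate individually at or above 50; inconclusive = only one of the two criteria met; inactive = mean below 50 and not all replicates reaching 50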;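 note: 0% = plate neutral controls and 100% = maraviroc near 300 nM; one replicate is shown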
eIF4H inh – human eIF4H binding inhibitors, primary screen, translation initiation inhibitor project, biochemical, uHTS, fluorescence polarization. Eukaryotic translation initiation factor 4H (Homo sapiens), Q15056. eIF4H fluorescence polarization binding assay. inhibition, % at 35 µM. actives 0.94% (n = 290,000);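 active = 50% or more with normal probe brightness, or confirmed in later tests; inconclusive = above 50% with abnormal brightness, or retests that disagree; inactive = below 50% or failed in later tests; about a fifth of its hits are not listed in these tables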;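 note: calls also rest on retests at 20 µM and on dose response follow-up; 0% = protein and probe with vehicle and 100% = probe without protein; strong numbers were not always called active; many hits fall short of the cut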
Yeast UUG start – modulators of yeast start codon fidelity, primary screen, whole organism, S. cerevisiae, single point, plate reader; S. cerevisiae UUG-firefly luciferase reporter, luminescence/redox ratio; activity score, % at 18.7 µM; actives 0.13% (n = 350,000);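 active = replicate mean at a twofold rise or more, about +100% in these data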;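 note: firefly luciferase made from a UUG start codon reports start codon fidelity; reporter light over untreated wells divided by growth signal over untreated wells; some hits fall short of that in this replicate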
Rce1 inh – yeast Rce1p protease inhibitors, primary screen, biochemical, fluorescence, cell-free homogeneous; CAAX prenyl protease 2 (Saccharomyces cerevisiae (strain ATCC 204508 / S288c)), Q03530; calls only; AID 2563, 2010; actives 0.27% (n = 290,000); yeast membranes, quenched prenylated peptide cleavage fluorescence;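 active = fall in fluorescence gain of 50% or more versus controls, with final raw signal at or below 3038400; inconclusive = same 50% fall but final raw signal above 3038400; inactive = fall in fluorescence gain under 50%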;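 note: plate controls were neutral control wells for no effect and wells lacking membranes for full effect; tested at 10 µM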
Target sequence (Q03530 whole entry, looked up): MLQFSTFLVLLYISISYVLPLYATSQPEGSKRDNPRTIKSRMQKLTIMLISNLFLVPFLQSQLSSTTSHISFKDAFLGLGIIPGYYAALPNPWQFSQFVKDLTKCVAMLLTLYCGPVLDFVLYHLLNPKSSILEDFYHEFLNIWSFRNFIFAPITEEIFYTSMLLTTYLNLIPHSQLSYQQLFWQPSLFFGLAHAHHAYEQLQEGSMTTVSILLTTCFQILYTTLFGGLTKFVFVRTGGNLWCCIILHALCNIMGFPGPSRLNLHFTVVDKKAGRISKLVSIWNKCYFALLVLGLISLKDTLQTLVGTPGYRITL
PABP polyA inh – PABP poly(A) RNA binding inhibitors, primary screen, biochemical, fluorescence polarization, uHTS; inhibition, % at 35 µM; actives 1% (n = 290,000); Polyadenylate-binding protein 1 (Homo sapiens), P11940; AID 2014, 2009;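 active = 50% or more with normal probe brightness, or confirmed in later tests; inconclusive = above 50% with abnormal brightness, or retests that disagree; inactive = below 50% or failed in later tests; about a fifth of its hits are not listed in these tables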;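 note: calls also rest on retests at 20 µM and on dose response follow-up; controls were probe without protein and protein plus probe with vehicle; some compounds called inactive have numbers as strong as hits; many hits fall short of the cut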
Target sequence (P11940 whole entry, looked up): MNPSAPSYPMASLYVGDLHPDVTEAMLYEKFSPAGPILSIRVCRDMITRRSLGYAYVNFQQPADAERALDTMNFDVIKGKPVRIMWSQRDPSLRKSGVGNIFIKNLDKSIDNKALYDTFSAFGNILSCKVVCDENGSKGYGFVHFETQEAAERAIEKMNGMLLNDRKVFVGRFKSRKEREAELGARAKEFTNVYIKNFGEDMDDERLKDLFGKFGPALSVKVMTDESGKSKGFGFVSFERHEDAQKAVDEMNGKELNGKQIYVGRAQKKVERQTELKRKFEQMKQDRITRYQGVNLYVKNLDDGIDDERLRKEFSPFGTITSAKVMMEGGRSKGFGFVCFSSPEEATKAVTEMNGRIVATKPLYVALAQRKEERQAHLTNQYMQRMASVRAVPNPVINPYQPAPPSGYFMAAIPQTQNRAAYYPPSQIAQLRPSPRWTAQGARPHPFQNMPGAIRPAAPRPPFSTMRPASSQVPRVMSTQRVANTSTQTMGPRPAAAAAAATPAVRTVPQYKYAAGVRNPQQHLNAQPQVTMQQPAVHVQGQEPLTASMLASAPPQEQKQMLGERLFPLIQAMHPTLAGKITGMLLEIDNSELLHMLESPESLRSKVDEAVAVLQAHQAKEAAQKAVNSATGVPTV
eIF4H inh retest – second read-out of eIF4H inh, no call of its own (marks repeat the call); inhibition, %; compound at 20 µM; confirmation average;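 mean of two retest wells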
PABP polyA inh retest – second read-out of PABP polyA inh, no call of its own (marks repeat the call); inhibition, %; compound at 20 µM; confirmation repeats;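 mean of two retest wells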
MT1-MMP act inh RFP – also measured in MT1-MMP act inh; calls as there; RFP signal change, %; measured here: RFP expression control read;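 0 = vehicle wells; hits needed this value within 50% of zero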
Active calls of the source: *; i = inactive; u = inconclusive; x = not tested or not shown. Only part of the results is shown. The share of hits here may be higher or lower than overall.

SMILES	MT1-MMP act inh	MT1-MMP act inh RFP	CSC inhib	Env fusion inh	eIF4H inh	Yeast UUG start	Rce1 inh	PABP polyA inh	others
COC(=O)[C@H]1C[C@H](OC(=O)Nc2c(C)noc2C)[C@@]2(O)CN(S(=O)(=O)c3ccc(C)cc3)CC2[C@H]1C(=O)OC (stereo partly specified)	1	5	x	-9	x	2	x	x
COc1cc([N+](=O)[O-])ccc1NC(=O)Nc1cnccn1	-14	-6	-5	58*	0	-9	i	-11
CCN(CC(=O)NCc1ccc(Cl)cc1)C(=O)CCOc1ccccc1C	-4	-4	-18	13	x	3	i	x
COc1ccc(NC(=O)CSc2c3c(nc4ccccc24)CCCC3)c(OC)c1	0	1	15	1	-2	-9	i	-18
CC(C)CNC(=O)c1ccc(-c2ccc(F)c(F)c2)c2ccoc12	1	-12	x	-19	x	-2	x	x
CC1(C(=O)NCc2cccc(Cl)c2)Cc2c(-c3ccc4c(c3)OCO4)ccnc2O1 (stereo unspecified)	1	-2	x	-42	x	-11	x	x
COc1cccc(-c2cnc(C(O)c3c(C)ccc4ccccc34)[nH]2)c1 (stereo unspecified)	0	-3	x	-16	x	-28	x	x
CN1CCc2c(sc(NC(=O)c3ccco3)c2C(N)=O)C1	-1	4	-10	x	36	-13	i	9
Cn1nnc2cc(C(=O)NCc3ccco3)ccc21	4	3	-4	x	-7	-4	i	12
CC[n+]1c(/C=C(\C)SC)sc2ccccc21	-2	5	6	x	5	-9	i	5
O=C(c1ccc(Br)cc1)N1CCC(C(=O)N2CCN(c3ccccc3)CC2)CC1	4	-3	5	x	-4	0	i	-2
Cc1noc(NS(=O)(=O)c2ccc(N/C=C\C(=O)c3ccccc3)cc2)c1C	4	4	-3	-1	-4	x	i	-6
Cc1c([N+](=O)[O-])c(C(=O)NC2CCCCC2)nn1C	-1	-1	-11	1	-1	-13	i	3
COC(=O)c1c(C)[nH]c(C(=O)N2CCN(c3ccc(OC)cc3)CC2)c1C	x	x	4	16	u	x	i	62*	PABP polyA inh retest=71*
O=C(NCc1ccccc1Cl)C1CCCN1C(=O)Nc1ccccc1 (stereo unspecified)	1	3	-4	14	3	-9	i	0
OCCN(Cc1ccccc1)C(=S)Nc1ccc(F)cc1	1	5	3	2	6	x	i	-2
CCOC(=O)c1cc(-c2ccccc2)sc1NC(=O)CN1C(=O)c2ccccc2C1=O	3	0	12	x	x	-17	i	x
Cc1cc(OC(C)C(=O)NCCCn2ccnc2)c2c(C)c(C)c(=O)oc2c1 (stereo unspecified)	-1	5	-12	-6	-8	2	i	-16
Cc1cccc(NC(=S)Nc2ccc(Oc3ccccc3)cc2)n1	4	-13	22	-1	-3	-8	i	0
COc1ccc(-c2nc(C#N)c(N3CCC(C(N)=O)CC3)o2)cc1	3	-1	1	x	1	x	i	-2
Cc1cc(C)cc(OCc2nnc(SCC(=O)NC3CC3)n2C)c1	1	4	-7	-15	-1	-15	i	5
COc1ccc(-c2ncc3ccccn23)cc1	-2	2	3	x	20	-15	i	26
O=C(COC(=O)c1cccs1)NCCCc1ccccc1	0	2	-5	-2	1	x	i	12
Cc1ccc(N2C(=O)NC(NS(=O)(=O)c3ccccc3)(C(F)(F)F)C2=O)cc1C (stereo unspecified)	1	2	-9	-12	0	-12	i	6
CN(C(=S)Nc1ccccc1F)C1(c2ccccc2Cl)CCCCC1=O (stereo unspecified)	-3	-4	-3	22	3	-8	i	3
(listing goes on)
SMILES	MT1-MMP act inh	MT1-MMP act inh RFP	CSC inhib	Env fusion inh	eIF4H inh	Yeast UUG start	Rce1 inh	PABP polyA inh	others
CC(C)C[C@H]1CNC(=O)C(=O)N1C[C@H](C)NC(=O)Cc1ccccc1	2	4	0	-2	-13	-10	i	-4
Cc1ccc(S(=O)(=O)N2CCC(C(=O)N3CC(C)OC(C)C3)CC2)cc1 (stereo unspecified)	-2	1	0	-6	1	-13	i	-2
O=C(CCCNS(=O)(=O)c1cccc2nsnc12)N1CCCCC1	1	4	-1	-82	0	3	i	-5
COc1ccc(NC(=O)CN(C)C(=O)c2ccccc2SCC(=O)N2CCCC2)cc1	2	3	2	-12	x	-21	i	x
O=C(O)c1ccc(CSc2nnc(-c3ccccc3Cl)n2-c2ccccc2)cc1	-1	2	-9	6	-4	x	i	-8
Cc1ccc(C(=O)NNC2=NCCC2)cc1	1	2	-4	x	-3	x	i	-8
Cc1cc(Cl)ccc1NC(=O)COC(=O)c1cc([N+](=O)[O-])ccc1N1CCOCC1	3	-2	-14	-192	x	11	i	x
CCN(C(=O)CSc1nnc(Cn2nnc3ccccc32)o1)c1nc(-c2ccccc2)cs1	-13	-26	4	x	-1	-12	i	0
O=c1[nH]c2ccccc2n1C1CCN(CCOc2ccccc2)CC1	-5	-8	x	9	x	-7	x	x
O=C(COC(=O)c1ccco1)Nc1cccc(S(=O)(=O)N2CCCCC2)c1	0	2	-14	x	x	-8	x	x
FC(F)(F)c1cnc2c(c1)[nH]c(=S)n2-c1ccc(Cl)cc1	-1	-15	36	33	1	-18	i	-3
Cc1n[nH]c(=O)n1-c1ccc(C(C)(C)C)cc1	-1	-3	-5	-2	3	x	i	-10
Cc1ccc(C(NC(=O)C2CCN(CCOc3ccccc3)CC2)c2ccccn2)cc1 (stereo unspecified)	5	4	x	7	x	-9	x	x
CCNc1nc2c(c(=O)n(C)c(=O)n2C)n1CCCc1ccccc1	-5	-24	-8	16	-4	-19	x	4
CC(C)CC[n+]1ccn(-c2nc3ccccc3nc2[N-]S(=O)(=O)c2ccccc2)c1	-3	3	-13	x	0	-15	i	0
COC(=O)c1ccccc1NC(=O)c1ccc(NS(C)(=O)=O)cc1	1	-3	11	x	-4	6	i	-3
Cc1cc(Cl)ccc1NC(=S)Nc1cccnc1	2	-4	-1	-42	1	-12	i	-1
COc1ccc(C2=Nn3c(nnc3-c3ccccc3)SC2)cc1OC	2	3	16	-24	-4	-6	i	-6
O=C(O)CN1C(=O)CC(Cc2ccccc2)C1=O (stereo unspecified)	0	6	-5	-80	-2	-21	i	7
COc1ccc(C(=O)NC2CCCCC2)cc1OC1CCN(C(C)C)CC1	-5	2	1	-19	13	-15	i	3
Cc1ccc2[nH]c(=O)c(NC(N)=S)nc2c1	3	1	14	-37	-1	-12	i	10
CCCCN1CC[C@H]2C=CC[C@@H](C(=O)N3CCOCC3)[C@H]2C1=O	-4	2	-9	4	x	-6	i	x
Cc1cccc(C(=O)N2CCN(c3ccc([N+](=O)[O-])c(NCc4ccco4)c3)CC2)c1	-4	-15	7	x	4	-22	i	-6
CCOC(=O)N1CCC(N2C(=O)c3ccccc3C2Nc2cc(OC)c(OC)c(OC)c2)CC1 (stereo unspecified)	-2	1	-16	x	-1	-4	i	-13
Cc1c(C=O)c2ccccn2c1C(=O)c1cccs1	-19	1	x	10	94*	x	i	16*	eIF4H inh retest=90*;PABP polyA inh retest=62*
Continuation.
SMILES	MT1-MMP act inh	MT1-MMP act inh RFP	CSC inhib	Env fusion inh	eIF4H inh	Yeast UUG start	Rce1 inh	PABP polyA inh	others
CN(Cc1cccc(F)c1)C(=O)c1ccc(NS(=O)(=O)c2ccc3[nH]c(=O)[nH]c3c2)cc1	7	3	-9	x	x	x	i	x
COc1ccc2cc(C(=O)C3CCCN(C(=O)c4cccnc4)C3)ccc2c1 (stereo unspecified)	-1	4	-3	4	-12	-19	i	-4
Cc1nc(-c2ccc(Cl)cc2)sc1C1(C)CC(c2ccc(F)cc2)=NO1 (stereo unspecified)	1	1	21	9	-11	-19	i	-7
CCC(c1ccc(O)cc1)C(CC)c1ccc(O)cc1 (stereo unspecified)	-6	-4	62	-12	x	-7	x	x
CCCCN1CC2=C(C1=O)C(c1ccc(O)cc1)NC(=O)N2C (stereo unspecified)	6	5	-18	6	0	x	i	31
CCOC(=O)CSCC(=O)N1CCC(Cc2ccccc2)CC1	4	4	3	20	-7	-13	i	2
CN(C)C(CNC(=O)c1cc(S(=O)(=O)N(C)c2ccc(F)cc2)ccc1Cl)c1cccs1 (stereo unspecified)	3	-5	x	22	x	-18	x	x
Cc1c(F)cccc1NS(=O)(=O)c1ccc2c(c1)c(C)cc(=O)n2C	-1	0	2	-3	2	-8	i	0
O=[N+]([O-])c1ccccc1/C=N/n1c(-c2ccccc2)n[nH]c1=S	-2	0	-5	6	2	-22	x	2
O=C(CSc1nnc(-c2ccccc2)o1)OCc1ccccc1	-1	-4	-15	x	-7	-16	i	-9
COc1cccc(NC(=O)CN(C)C(=O)c2cccc(S(=O)(=O)Nc3ccccc3OC)c2)c1	-1	1	x	11	x	-16	x	x
Cc1ccc([C@@H]2CC=C(C(=O)O)[C@H](c3cccc(Cl)c3)N2S(=O)(=O)c2ccccc2C)cc1	-2	0	x	2	x	-14	x	x
CC(=O)[C@@]1(O)CCC2C3CC[C@H]4C[C@@H](O)CC[C@]4(C)C3CC[C@@]21C (stereo partly specified)	3	2	-5	0	x	5	x	x
Cn1c(CNc2cccc(Cl)c2)nnc1SCC#N	-2	1	-16	11	5	x	i	-1
COc1ccc(NC(=O)/C(C#N)=C/c2ccc3c(c2)n(C)c(=O)n3C)cc1	6	5	3	x	-1	-9	i	13
Cc1ccccc1C(=O)NCC(c1ccco1)N1CCc2ccccc21 (stereo unspecified)	-3	1	-1	-19	x	x	i	x
CC1=C(C(=O)N(C(C)C)C(C)C)CC(CC(=O)NCCCCc2ccccc2)C(=O)N1Cc1ccc(F)cc1 (stereo unspecified)	-6	-14	x	-45	x	-9	x	x
NC(=O)c1c(NC(=O)c2cccs2)sc2c1CCCCCC2	3	-9	32	x	-9	-15	i	10
Cc1cc(C(=O)CSc2nnc(-c3ccc4c(c3)OCO4)o2)c(C)n1-c1ccc(F)cc1	-1	4	68	7	36	-7	i	-21
Cc1ccc(C(C(=O)NC2CCCCC2)N2CCOCC2)cc1 (stereo unspecified)	-8	1	-5	x	-2	-17	i	-7
Cc1ccc(C(O)c2ncc(-c3ccccc3)[nH]2)c(C)c1 (stereo unspecified)	4	-1	x	4	x	-9	x	x
COc1ccccc1Nc1nn2c(=O)c3ccc(C(=O)N4CCCC(C)C4)cc3nc2s1 (stereo unspecified)	7	-3	-1	25	-1	-16	x	-7
CCC(CO)Nc1ncnc2c1cnn2-c1ccc(OC)cc1 (stereo unspecified)	0	8	-10	-1	-6	-5	i	-11
COC(=O)CNC(=O)C1Cc2ccccc2CN1S(=O)(=O)c1ccc(F)cc1 (stereo unspecified)	0	1	-15	-6	-21	4	i	-11
O=C1CC(C(=O)NCCc2ccccc2)SC(=Nc2ccccc2)N1 (stereo unspecified)	0	-2	-5	-2	-3	-17	x	0

A run of entries of the results above:
SMILES	MT1-MMP act inh	MT1-MMP act inh RFP	CSC inhib	Env fusion inh	eIF4H inh	Yeast UUG start	Rce1 inh	PABP polyA inh	others
Cc1ccc(C(O)c2ncc(-c3ccccc3)[nH]2)c(C)c1 (stereo unspecified)	4	-1	x	4	x	-9	x	x
COc1ccccc1Nc1nn2c(=O)c3ccc(C(=O)N4CCCC(C)C4)cc3nc2s1 (stereo unspecified)	7	-3	-1	25	-1	-16	x	-7
